Source: PubChem BioAssay
YopH inh: YopH tyrosine phosphatase inhibitors, primary screen, biochemical, fluorescence Ex485/Em525; actives 0.16% (n = 140,000); inhibition, %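 (about 10 µM by stock and volumes)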; YopH tyrosine phosphatase [Yersinia enterocolitica];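 active = inhibition of 50% or more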;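 note: controls were vehicle for no effect and minimum signal wells for full effect; inactives centre near -20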
Mtb bLac sens: beta-lactam sensitization of Mtb H37Rv, H37Rv. inhibition, % at 25 µM. actives 0.27% (n = 330,000). AID 434955, 2010. M. tuberculosis H37Rv growth with meropenem, percent inhibition; hits of this screen are not shown here;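 active = about 74% or more and at least 40 points above the plate without the antibiotic, then above 30% in a dose series; inconclusive = first-round hits that could not be retested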;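 note: growth measured after seven days incubation then overnight dye step; 0% = bacteria only wells and 100% = bacteria with antibiotic; twin plates without the antibiotic show which effects depend on it; some results filed as inactive read as strong as hits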
Mtb growth: M. tuberculosis H37Rv growth inhibitors, H37Rv strain (AID 1626) | M. tuberculosis H37Rv growth inhibition; higher % means a stronger effect | one-dose inhibition, % at 10 µM; IC50 in µM for titrated hits | actives 0.95% (n = 220,000);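 active = confirmed in a dose series; inconclusive = inhibition above 80% but not taken into the dose series; inactive = below 80% or under 30% at every dose of the series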;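 note: bacteria incubated seven days before Alamar blue readout; 0% = bacteria only wells and 100% = bacteria with antibiotic wells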
Arbovirus anti: antivirals against arbovirus infection, primary screen, cell-based, full library, 10K replicate subset | arbovirus infection cell-based antiviral screen | inhibition, % at 10 µM | AID 1251, 2008 | actives 0.37% (n = 200,000);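 active = inhibition from about 30%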;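 note: bluetongue infection of BSR cells; cell survival read as ATP light after 72 h; 0% = infected wells without compound and 100% = uninfected wells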
RecA splice inh: Mtb RecA intein splicing inhibitors, primary screen, biochemical, fluorescence, HTS | Protein RecA (Mycobacterium tuberculosis (strain ATCC 25618 / H37Rv)), P9WHJ3 | cell-free RecA intein splicing | inhibition, %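 (about 9 µM by stock and volumes)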 | actives 0.75% (n = 290,000) | AID 2221, 2009; in the data active = inhibition above about 30%; inconclusive = no clear call, values can overlap the other calls;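 note: 0% = vehicle wells and 100% = reference inhibitor control wells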
Target sequence (P9WHJ3 whole entry, looked up, canonical isoform): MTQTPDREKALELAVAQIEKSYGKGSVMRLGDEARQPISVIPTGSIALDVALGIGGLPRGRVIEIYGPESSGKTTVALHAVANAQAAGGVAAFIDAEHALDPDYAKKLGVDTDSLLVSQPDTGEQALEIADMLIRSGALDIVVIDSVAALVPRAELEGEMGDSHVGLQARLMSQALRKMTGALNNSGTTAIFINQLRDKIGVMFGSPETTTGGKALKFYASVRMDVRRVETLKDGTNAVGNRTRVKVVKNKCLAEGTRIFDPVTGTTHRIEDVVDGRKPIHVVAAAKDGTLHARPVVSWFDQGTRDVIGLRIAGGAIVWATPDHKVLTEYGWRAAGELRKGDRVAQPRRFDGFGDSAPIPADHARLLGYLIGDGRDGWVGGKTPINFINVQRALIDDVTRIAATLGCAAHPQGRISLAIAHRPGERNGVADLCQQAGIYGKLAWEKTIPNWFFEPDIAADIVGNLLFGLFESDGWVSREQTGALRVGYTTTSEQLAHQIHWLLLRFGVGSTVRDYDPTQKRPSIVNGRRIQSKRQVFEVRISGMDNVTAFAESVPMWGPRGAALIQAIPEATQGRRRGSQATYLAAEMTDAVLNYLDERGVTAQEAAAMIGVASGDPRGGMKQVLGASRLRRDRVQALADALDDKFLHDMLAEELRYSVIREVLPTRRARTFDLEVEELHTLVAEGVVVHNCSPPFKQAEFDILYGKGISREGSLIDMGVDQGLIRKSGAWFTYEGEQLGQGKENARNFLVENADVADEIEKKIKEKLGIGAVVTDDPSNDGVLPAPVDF
Arbovirus anti repeat: second read-out of Arbovirus anti, no call of its own (marks repeat the call); inhibition, %; measured here: 10K subset replicate screen; many hits read low in the repeat;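 first of two repeat runs on a subset; 0% = infected and 100% = uninfected wells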
Starred values were filed as active, the others as inactive; u = inconclusive; x = not tested or not shown. These rows are one share of the data (hit frequency here may not be typical).

SMILES	YopH inh	Mtb bLac sens	Mtb growth	Arbovirus anti	RecA splice inh	others
CCOC(=O)c1c(NC(=S)NC(C)=O)sc(C)c1C	-12	2	4%	-1	-4.0
CC1CC2=C(C(=O)O1)C(c1ccc(Cl)cc1)Nc1ccccc1N2 (stereo not given)	-8	-6	11%	-4	-2.7
Cn1c(=O)[nH]c(=O)c2c1nc(Br)n2CCC(=O)c1ccccc1	-30	x	-8%	2	-0.4
Cc1ccc(OCc2n[nH]c(=S)n2-c2ccc(Br)cc2)cc1	x	-1	x	x	4.1
CCOC(=O)C1(CC2CC2)CCN(Cc2ccc(OC)cc2F)CC1	x	0	-1%	-1	0.9
C=CCn1c(C2CCCCC2)n[nH]c1=S	x	-1	2%	8	0.9
O=C(Nc1ncccn1)c1cc(-c2ccc(F)cc2)nc2ccccc12	x	44	-3%	-4	1.1
CC(Sc1nncn1C)C(=O)Nc1ccc(Cl)cn1 (stereo not given)	-28	-2	5%	-3	1.3
O=C(NNC(=O)C1C2C=CC(C2)C1C(=O)O)c1ccccc1 (stereo not given)	x	-2	x	x	-0.7
Cc1nn(-c2ccccc2)c(C)c1-c1ccccc1O	x	3	x	x	0.8
O=C(Cc1ccc(-n2c(=O)c3ccccc3n(CC(=O)Nc3ccc(F)cc3F)c2=O)cc1)NCc1ccco1	x	-1	1%	3	3.6
COc1ccc(OCC(O)Cn2c(Nc3cccc(C)c3)nc3c2c(=O)n(C)c(=O)n3C)cc1 (stereo not given)	-31	2	6%	13	1.1
COc1ccc(N2CCN(c3ccc([N+](=O)[O-])cc3Cl)CC2)cc1	-33	6	4%	1	1.2
CCOC(=O)C1CCN(C(=O)c2ccccc2N(C)S(C)(=O)=O)CC1	-11	11	-4%	2	-0.3
O=S(=O)(NCc1ccccc1)c1ccc(S(=O)(=O)N2CCCCC2)cc1	-33	-7	2%	-9	-4.3

Seven compounds drawn at random from those above, as already listed:
SMILES	YopH inh	Mtb bLac sens	Mtb growth	Arbovirus anti	RecA splice inh	others
Cn1c(=O)[nH]c(=O)c2c1nc(Br)n2CCC(=O)c1ccccc1	-30	x	-8%	2	-0.4
CCOC(=O)c1c(NC(=S)NC(C)=O)sc(C)c1C	-12	2	4%	-1	-4.0
C=CCn1c(C2CCCCC2)n[nH]c1=S	x	-1	2%	8	0.9
CCOC(=O)C1(CC2CC2)CCN(Cc2ccc(OC)cc2F)CC1	x	0	-1%	-1	0.9
COc1ccc(OCC(O)Cn2c(Nc3cccc(C)c3)nc3c2c(=O)n(C)c(=O)n3C)cc1 (stereo not given)	-31	2	6%	13	1.1
CC1CC2=C(C(=O)O1)C(c1ccc(Cl)cc1)Nc1ccccc1N2 (stereo not given)	-8	-6	11%	-4	-2.7
O=S(=O)(NCc1ccccc1)c1ccc(S(=O)(=O)N2CCCCC2)cc1	-33	-7	2%	-9	-4.3

The results go on:
SMILES	YopH inh	Mtb bLac sens	Mtb growth	Arbovirus anti	RecA splice inh	others
CC1CCc2sc(C(=O)NNS(=O)(=O)c3ccc(F)c(F)c3F)cc2C1 (stereo not given)	x	-7	x	x	11
COc1cc(C2c3c(-c4cc(Cl)c(C)cc4O)n[nH]c3C(=O)N2Cc2cccnc2)ccc1O (stereo not given)	-24	1	-4%	7	5.2
Cc1ccc(S(=O)(=O)N(CC(=O)NCc2ccncc2)Cc2ccccc2F)cc1	x	-1	x	x	-1.8
CCc1ccc(-c2nc(CS(=O)CC(=O)NCc3ccc4c(c3)OCO4)c(C)o2)cc1 (stereo not given)	x	4	x	x	-2.8
O=C(COc1ccc2c3c(c(=O)oc2c1)CCC3)c1ccc2c(c1)OCO2	-1	1	10%	1	-0.9	Arbovirus anti repeat=-3
C#CCOC(=O)c1ccccc1C(=O)OCC#C	-37	77	11%	8	x
O=C(c1ccc2ccccc2n1)N1CCN(c2ccccn2)CC1	x	1	x	x	-2.7
CCN(CC)S(=O)(=O)c1cccc(C(=O)N/N=C/c2cc(OC)c(O)c(OC)c2)c1	-30	3	4%	-3	-1.1
O=C(CCOc1ccccc1)Nc1cccc([N+](=O)[O-])c1	x	-6	0%	5	1.4
COc1ccc(NS(=O)(=O)c2cc(C)ccc2NC(=O)c2cc(C)oc2C)cc1	-42	64	-9%	-17	9.8
CN(CCO)c1ccc([N+](=O)[O-])cc1C(=O)O	-24	1	0%	7	2.1
CCOn1c(SCC)nc2ccccc2c1=O	3	-12	-4%	0	-2.1
CCOc1cc(/C=N\Nc2nc(-c3ccc(C)cc3)c(NC(C)=O)s2)ccc1O	x	95	-9%	x	8.4
COC(=O)C(C)Sc1nc2ccsc2c(=O)n1Cc1ccccc1 (stereo not given)	x	-7	x	x	6.6
CCOC(=O)c1c(S(=O)(=O)NCC(=O)N2CCN(c3cccc(OC)c3)CC2)c(C)n(C)c1C	x	1	x	x	-0.2
COc1ccc(C)cc1NC(=O)CSc1nnc(-c2ccco2)n1N	15	4	0%	4	2.0
C/C=C(\C)c1nnc(NC(=O)C(C)C)s1	3	-6	0%	9	-1.8
CCC(C)(C(=O)NC1CCCCC1)N(C(=O)CNC(=O)c1ccccc1)c1c(C)n(C)n(-c2ccccc2)c1=O (stereo not given)	x	8	3%	4	-1.0
O=C(O)CCC(=O)N1CCc2cc(S(=O)(=O)N3CCN(c4ccc(F)cc4)CC3)ccc21	-39	5	-1%	5	-0.1	Arbovirus anti repeat=7
Cc1ccc(N(CC(=O)Nc2ccc(F)cc2)S(=O)(=O)N2CCCC2)cc1	-25	-1	-2%	-1	0.0
COc1cccc(-c2cc(C(F)(F)F)nc(N3CCOCC3)n2)c1	0	3	-11%	25	5.2	Arbovirus anti repeat=12
O=C(CN1C(=O)c2ccccc2C1=O)Nc1cccc(S(=O)(=O)Nc2ccccc2Cl)c1	-26	0	-3%	1	2.9
Cc1ccc(C(=O)N/N=C\c2c(C)nn(-c3ccccc3)c2Cl)cn1	-15	6	5%	5	1.3
CCOC(=O)c1cc(C(=O)OCC)c2cc(Br)ccc2n1	17	9	-1%	4	6.5
Cc1ccc(C(=O)Nc2nnc(Cc3ccccc3)s2)cc1	x	-1	x	x	2.7
CCOC(=O)c1ccc(N2C(=O)CC(N(C)Cc3ccccc3)C2=O)cc1 (stereo not given)	-19	-12	-8%	4	0.0
CC(C)(C)n1cnc2cc(NC(=O)c3ccc(Cl)cc3)ccc21	x	91	x	x	1.1
CC(C)Nc1ncnc2c1cnn2Cc1ccc(Cl)cc1	x	8	x	x	2.8
CC1Sc2ccc(Cl)cc2-c2nc(N)ncc21 (stereo not given)	x	50	7%	-13	-2.8
CCc1ccc(NC2=NC(C(=O)NC3CCCCC3)CC(=O)N2)cc1 (stereo not given)	3	-1	-7%	-2	-8.9

Gathered by group: the compounds so far with a thiophene ring, fused or not.
SMILES	YopH inh	Mtb bLac sens	Mtb growth	Arbovirus anti	RecA splice inh	others
CCOC(=O)c1c(NC(=S)NC(C)=O)sc(C)c1C	-12	2	4%	-1	-4.0
CC1CCc2sc(C(=O)NNS(=O)(=O)c3ccc(F)c(F)c3F)cc2C1 (stereo not given)	x	-7	x	x	11
COC(=O)C(C)Sc1nc2ccsc2c(=O)n1Cc1ccccc1 (stereo not given)	x	-7	x	x	6.6

An excerpt from the list above, as a working copy:
SMILES	YopH inh	Mtb bLac sens	Mtb growth	Arbovirus anti	RecA splice inh	others
CC1Sc2ccc(Cl)cc2-c2nc(N)ncc21 (stereo not given)	x	50	7%	-13	-2.8
CCc1ccc(NC2=NC(C(=O)NC3CCCCC3)CC(=O)N2)cc1 (stereo not given)	3	-1	-7%	-2	-8.9

Going on with the list.
SMILES	YopH inh	Mtb bLac sens	Mtb growth	Arbovirus anti	RecA splice inh	others
COC(=O)c1nnn(-c2ccc(Cl)c(Cl)c2)c1C(=O)OC	x	7	43%	6	0.8
COc1cccc(-n2c(-c3ccco3)nc3nc4ccccc4nc32)c1	-2	-5	2%	-4	-7.2
CCN(Cc1ccccc1)C(=O)CN1C(=O)c2ccccc2C1=O	x	-2	x	x	-1.2
c1ccc(CSc2ncnc3c2cnn3-c2ccccc2)cc1	-16	13	17%	0	-2.9
CSC1=NCCN1S(=O)(=O)c1ccc(F)cc1	x	-6	x	3	-4.0
Cc1cc2ccccc2c(=O)n1CC(=O)NCC(=O)N1CCN(c2cccc(Cl)c2)CC1	-34	3	-4%	-6	0.4
COC(=O)C1CCN(C(=O)COC(=O)Cn2cnnn2)CC1	-26	-5	-8%	10	x
O=C(OCc1nc2ccccc2s1)c1cc2ccccc2oc1=O	-29	5	4%	1	-0.5
COc1ccc(S(=O)(=O)Cc2ccc(C(=O)NCc3ccccc3OC)o2)cc1	x	-2	x	x	-0.1
COc1ccccc1OCCCCCNCCO	-9	-4	2%	3	x
CC1CCCN(CC(=O)Nc2ccc(S(=O)(=O)N3CCCCC3)cc2)C1 (stereo not given)	-6	-6	-3%	-9	1.6
CC1(NC(=O)c2cc(S(=O)(=O)N3CCCCC3)ccc2Cl)CCS(=O)(=O)C1 (stereo not given)	-3	0	-2%	1	-3.4
COC(=O)c1ccsc1NC(=O)CCS(=O)(=O)c1ccccc1	x	u	x	x	3.3
O=C1CCCC(O)=C1Sc1ccccc1C(=O)O	x	0	3%	9	0.5
CCCSC(=O)N(CC)CC(=O)Nc1c(CC)cccc1CC	10	-3	4%	-3	-0.9

The last five compounds of the part before come first, to join the parts:
SMILES	YopH inh	Mtb bLac sens	Mtb growth	Arbovirus anti	RecA splice inh	others
CC1CCCN(CC(=O)Nc2ccc(S(=O)(=O)N3CCCCC3)cc2)C1 (stereo not given)	-6	-6	-3%	-9	1.6
CC1(NC(=O)c2cc(S(=O)(=O)N3CCCCC3)ccc2Cl)CCS(=O)(=O)C1 (stereo not given)	-3	0	-2%	1	-3.4
COC(=O)c1ccsc1NC(=O)CCS(=O)(=O)c1ccccc1	x	u	x	x	3.3
O=C1CCCC(O)=C1Sc1ccccc1C(=O)O	x	0	3%	9	0.5
CCCSC(=O)N(CC)CC(=O)Nc1c(CC)cccc1CC	10	-3	4%	-3	-0.9
COc1ccc(S(=O)(=O)Cc2ccc(C(=O)N3CCN(c4cccc(C)c4C)CC3)o2)cc1	-24	1	-6%	-8	x	Arbovirus anti repeat=-18
c1ccc2cc3c(NCCN4CCOCC4)ccnc3cc2c1	-23	x	4%	-41	x
COC(=O)c1ccc(CNC(=O)COC(=O)CC23CC4CC(CC(Br)(C4)C2)C3)cc1	-34	-4	-2%	2	-2.9
COc1ccc(CNC(=O)C(C)Sc2ccc(C)cc2)cc1 (stereo not given)	x	-2	3%	0	3.2
O=C(CSc1nc2ccccc2s1)NNC(=O)Nc1ccc(Cl)c(Cl)c1	-36	-13	6%	-1	1.4
CCCCNC(=O)n1c(SC)nc2ccccc21	8	-5	-2%	-2	2.6
CC(CC(=O)NC1CCCC1)c1ccccc1 (stereo not given)	32	-8	3%	1	1.5
Cc1noc(C)c1CSCC(=O)N(C)CC(=O)Nc1ccc(F)c(F)c1F	x	-5	x	x	-1.4
CCOc1ccccc1NC(=O)CN(c1ccc(OC)cc1OC)S(=O)(=O)c1ccccc1[N+](=O)[O-]	x	0	-5%	-6	2.7
Cc1cc(C)n(C(=O)COc2ccc([N+](=O)[O-])cc2)n1	-16	0	-5%	-1	3.0
Cc1cccc(OC(C)C(=O)N2CCN(Cc3ccc4c(c3)OCO4)CC2)c1 (stereo not given)	x	-26	x	x	1.6
CN(C)/C=N/c1ncc(C(=O)c2ccc(-c3ccccc3)cc2)s1	x	3	4%	-12	-8.1
O=C(CSCc1ccc([N+](=O)[O-])cc1)NC1CC2CCC1C2 (stereo not given)	-8	3	-9%	-9	0.6
Cc1ccc(-n2c3nc(=O)[nH]c(=O)c-3cc3cc([N+](=O)[O-])ccc32)cc1	-11	0	22%	9	3.8
CCOc1cc(C(=O)Nc2c3c(nn2C(C)(C)C)CS(=O)C3)cc(OCC)c1OCC (stereo not given)	-30	-2	-3%	8	-2.3
